DUX4 txn inh: inhibitors of DUX4-driven ZSCAN4 reporter expression, primary screen, 293T cells, Gaussia and Italica luciferase; 37,000 tested, 0.8% active; 293T-iDUX4 ZSCAN4-Gaussia luciferase reporter, 24 h; stronger effect = lower value; activity change, negative = inhibition, % (concentration not given with the values);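 active = -10% or lower and over 25 points stronger than a control reporter; inconclusive = -10% or lower with a smaller gap; inactive = above -10%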;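 note: 0% = median of neutral control wells and -100% = median of positive control wells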
DUX4 txn inh difference: further read-out of DUX4 txn inh, marked with its call; Gaussia minus Italica difference, %; measured here: selective DUX4 reporter inhibition;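 worked out from the two reporters; negative = selective loss of the DUX4 reporter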
DUX4 txn inh control: further read-out of DUX4 txn inh, marked with its call; activity change, negative = inhibition, %; measured here: Italica tet-on control reporter;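 0 = neutral control and -100 = positive control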
Starred values were filed as active, the others as inactive; ? = inconclusive; · = no result given.

SMILES	DUX4 txn inh	DUX4 txn inh difference	DUX4 txn inh control
COc1ccccc1-c1cnc2c(c1)C(=O)N([C@H](C)CO)C[C@H](C)[C@@H](CN(C)C(=O)CC1CC1)O2	1	3	-2.4
COc1ccc(C#Cc2ccc([C@H]3[C@H]4CN(Cc5ccccc5F)CCCCN4[C@H]3CO)cc2)cc1	-21*	-37*	15*
CO[C@H]1CN(C)C(=O)c2cc(NC(=O)c3cnccn3)ccc2OC[C@H](C)NC[C@@H]1C	8	3	4.9
CCC(=O)N1CCCCN2[C@@H](CO)[C@@H](c3ccc(-c4ccc(F)cc4)cc3)[C@@H]2C1	10	21	-11
CCC(=O)N1CC[C@@H]2[C@H]1c1cc(-c3ccc(OC)cc3)ccc1N(C)[C@H]2CO	-9	14	-23
Cc1noc(C)c1S(=O)(=O)N(C)C[C@@H]1OCc2cnnn2CCCC(=O)N([C@@H](C)CO)C[C@H]1C	2	5	-3.0
CCC(=O)N1CC2(C1)CN(C(=O)c1ccccn1)[C@H](CO)c1c2c2ccc(OC)cc2n1C	11	13	-1.6
CCCC(=O)Nc1ccc2c(c1)C(=O)N(C)[C@H]1CC[C@@H](CC(=O)NCCN3CCCCC3)O[C@H]1CO2	0	-3	3.2
CCS(=O)(=O)N1CCCCN2[C@H](C1)[C@@H](c1ccc(-c3ccc(C(=O)N(C)C)cc3)cc1)[C@@H]2CO	4	6	-1.8
C[C@H](CO)N1C[C@H](C)[C@@H](CN(C)C(=O)Cc2ccncc2)Oc2cc(-c3cncnc3)ccc2S1(=O)=O	4	5	-1.3
CO[C@H]1CN(C)C(=O)c2ccc(NC(=O)Cc3ccccc3)cc2OC[C@@H](C)N(C(C)=O)C[C@H]1C	-1	0	-0.5
O=C(C[C@H]1CC[C@H](NS(=O)(=O)c2ccccc2F)[C@H](CO)O1)NCCCN1CCOCC1	6	3	2.2

Single values from the entries so far.
Cc1noc(C)c1S(=O)(=O)N(C)C[C@@H]1OCc2cnnn2CCCC(=O)N([C@@H](C)CO)C[C@H]1C in DUX4 txn inh = 2
COc1ccccc1-c1cnc2c(c1)C(=O)N([C@H](C)CO)C[C@H](C)[C@@H](CN(C)C(=O)CC1CC1)O2 in DUX4 txn inh control = -2.4

New compounds follow:
SMILES	DUX4 txn inh	DUX4 txn inh difference	DUX4 txn inh control
CN(C)C(=O)C[C@@H]1CC[C@H]2[C@@H](COC[C@H](O)CN2C(=O)C2CCOCC2)O1	4	1	3.0
COc1ccc(-c2ccc([C@@H]3[C@@H](CO)N4C(=O)CN(C(=O)c5ccccn5)C[C@H]34)cc2)cc1	15	9	6.5
C[C@H](CO)N1C[C@H](C)[C@@H](CN(C)S(=O)(=O)c2ccc(F)cc2)OCc2cnnn2CCCC1=O	2	1	1.1
N#C[C@H]1N[C@H](CO)[C@@H]1c1ccc(/C=C/c2ccccc2)cc1	0	2	-1.4
C[C@H](NC(=O)C[C@H]1C[C@@H]2c3cc(NC(=O)C4CCOCC4)ccc3O[C@@H]2[C@H](CO)O1)c1ccccc1	8	4	4.0
C[C@@H]1CN([C@@H](C)CO)S(=O)(=O)c2ccc(/C=C/c3ccccc3)cc2O[C@@H]1CN(C)Cc1cccnc1	-1	1	-1.7
CO[C@@H]1CN(C)C(=O)c2ccc(NC(=O)c3ccccc3F)cc2OC[C@H](C)N(C)C[C@H]1C	6	4	1.7
Cc1cccc(-c2ccc([C@@H]3[C@H]4CN(C(=O)Cc5ccccn5)CC(=O)N4[C@H]3CO)cc2)c1	0	6	-5.5
O=C(C[C@@H]1CC[C@@H]2[C@H](COC[C@H](O)CN2CC2CCCCC2)O1)NCc1ccc(F)cc1	?	·	·
O=C(C[C@@H]1CC[C@H](NC(=O)Nc2cc(F)ccc2F)[C@H](CO)O1)NCc1ccncn1	-2	0	-2.3
C[C@H](CO)N1C[C@H](C)[C@@H](CN(C)Cc2ccccc2C(=O)O)OCc2cn(nn2)CCCC1=O	1	-1	2.4
COc1ccccc1S(=O)(=O)N[C@@H]1C=C[C@H](CC(=O)N2CCOCC2)O[C@@H]1CO	-4	-2	-2.2
O=C(Cc1ccccc1)N1CC(=O)N2[C@H](C1)[C@@H](c1ccc(Br)cc1)[C@@H]2CO	0	-5	4.8
CCCN1[C@H](C(=O)N[C@@H](C)c2ccccc2)[C@@H](CO)[C@@H]2Cn3c(ccc(-c4cccc(F)c4)c3=O)[C@@H]21	?	·	·
COc1ccc(C(=O)N2C[C@H]3[C@@H](c4ccccc42)[C@H](CO)N3Cc2ccc(Cl)cc2)cc1	-2	0	-1.7
CCC(=O)N1CC(=O)N2[C@H](CO)[C@H](c3ccc(C#CC4CCCCC4)cc3)[C@H]2C1	-4	-5	1.4
CN(C)C(=O)c1ccc(-c2ccc([C@H]3[C@@H](CO)N4C(=O)CN(C(=O)CC5CC5)C[C@@H]34)cc2)cc1	15	11	3.5
O=C(C[C@H]1C[C@H]2c3cc(NC(=O)C4CCC4)ccc3O[C@H]2[C@@H](CO)O1)NCC1CC1	4	0	4.4
O=C(C[C@@H]1CC[C@H]2[C@@H](COC[C@H](O)CN2Cc2cccc(F)c2)O1)NCc1ccncc1	7	5	2.1
C[C@@H]1CN([C@@H](C)CO)S(=O)(=O)c2ccc(C#CC3CCCCC3)cc2O[C@H]1CN(C)Cc1cccnc1	-1	-2	1.6
COc1cccc(C#Cc2ccc3c(c2)[C@H]2[C@H](CCN2C(=O)c2ccc(F)cc2)[C@H](CO)N3)c1	-9	-14	5.2
CCc1csc(N2[C@H](C#N)[C@@H](c3ccc(-c4ccc(F)cc4)cc3)[C@H]2CO)n1	1	-1	2.0
COc1cccc(S(=O)(=O)N[C@@H]2CC[C@@H](CC(=O)NC3Cc4ccccc4C3)O[C@@H]2CO)c1	0	1	-0.3
O=C(C[C@H]1CC[C@H]2[C@@H](COC[C@H](O)CN2C(=O)Nc2ccc(F)cc2)O1)NCCCN1CCOCC1	1	-2	2.6
C/C=C/c1ccc([C@@H]2[C@@H](CO)N(C(=O)C3CCOCC3)C23CN(C(=O)NC(C)C)C3)cc1	0	-15	16
CCNC(=O)c1cc2c(c(-c3cccc(-c4cccnc4)c3)n1)[C@H](CCO)N(S(C)(=O)=O)C2	0	5	-5.3
C/C=C/c1cnc2c(c1)C(=O)N([C@H](C)CO)C[C@@H](C)[C@@H](CN(C)Cc1ccncc1)O2	0	-1	1.2
C[C@H](CO)N1C[C@H](C)[C@@H](CN(C)C(=O)Nc2cccc(Oc3ccccn3)c2)OCc2cn(nn2)CCCC1=O	-5	-5	0.0
COc1ccc(C#Cc2ccc([C@@H]3[C@@H](CO)N4C(=O)CN(C(=O)c5cccnc5)C[C@@H]34)cc2)cc1	?	·	·
CN(C)CC(=O)N1[C@H](CO)[C@H](c2ccccc2-c2ccc(C(=O)N(C)C)cc2)[C@@H]1C#N	5	3	1.5
COCC(=O)Nc1ccc2c(c1)[C@H]1C[C@@H](CC(=O)NCc3ccc(-c4ccccc4)cc3)O[C@H](CO)[C@H]1O2	?	·	·
C[C@H]1CN([C@@H](C)CO)C(=O)c2cc(NC(=O)CCC(F)(F)F)ccc2O[C@@H]1CN(C)Cc1ccc(-c2ccccc2)cc1	2	-4	6.2
CCC(=O)N1CC2(CCN(Cc3nccs3)CC2)c2c(n(C)c3cc(OC)ccc23)[C@@H]1CO	22	-7	29
O=C(C[C@H]1C=C[C@@H](NC(=O)CCN2CCCCC2)[C@H](CO)O1)NCc1ccc(Cl)c(Cl)c1	2	1	0.3
CN1CCN(C(=O)[C@H]2[C@H](CO)[C@H]3Cn4c(cccc4=O)[C@H]3N2Cc2cc(F)ccc2F)CC1	7	2	5.7
O=C(c1ccccc1F)N1C[C@H]2[C@@H](c3ccccc31)[C@@H](CO)N2C(=O)c1cccnc1	-3	-4	0.3
CCCC#Cc1ccc([C@H]2[C@@H](C#N)N(S(C)(=O)=O)[C@@H]2CO)cc1	1	2	-0.2
CCC(=O)NC[C@@H]1[C@@H](c2ccc(-c3ccccc3)cc2)[C@H](CO)N1C(=O)C1CC1	-2	0	-2.0
O=C(Cc1ccccc1)N1CC[C@@H]2[C@H]1c1cc(-c3ccc(F)cc3)ccc1N[C@@H]2CO	-24*	-26*	2.3*
O=S(=O)(c1ccccc1)N1CCCCN2[C@H](C1)[C@@H](c1ccc(-c3ccccc3)cc1)[C@@H]2CO	15	-2	17
C[C@H](CO)N1C[C@H](C)[C@H](CN(C)Cc2ccc(F)cc2)Oc2cc(C#CC(C)(C)O)ccc2S1(=O)=O	-2	-4	2.7
CCS(=O)(=O)N1[C@@H](CO)[C@H](c2ccccc2)C12CN(C(=O)C1CC1)C2	4	4	0.2
O=C(Nc1ccccc1F)N[C@@H]1CC[C@@H](CC(=O)N2CCCCC2)O[C@@H]1CO	4	7	-2.7
O=C(Nc1cccc(Cl)c1)N1C[C@@H]2[C@H](c3ccccc31)[C@H](CO)N2CC1CCCCC1	4	6	-2.9
O=C(C[C@@H]1C[C@@H]2c3cc(NC(=O)c4cccnc4)ccc3O[C@@H]2[C@H](CO)O1)NCc1ccc(Oc2ccccc2)cc1	-2	-3	0.7
COCC#Cc1ccc([C@H]2[C@@H](CO)N3C(=O)CN(C(=O)c4ccncc4)C[C@@H]23)cc1	8	-5	12
C[C@@H]1CN([C@H](C)CO)C(=O)Cc2cc(NS(C)(=O)=O)ccc2O[C@H]1CN(C)C(=O)Nc1ccccc1	1	-3	4.6
CN(C[C@H]1N[C@@H](CO)[C@H]1c1ccc(-c2cccc(F)c2)cc1)C(=O)C1CCC1	0	1	-0.6
O=C(CC1CC1)N1[C@@H](CO)[C@H](c2ccccc2)C12CN(Cc1cccnc1)C2	3	1	2.2
COc1ccc2c3c(n(C)c2c1)[C@@H](CO)N(Cc1nccs1)CC31CCN(C)CC1	2	-17	19
C[C@H](NC(=O)[C@@H]1[C@@H](CO)[C@@H]2Cn3c(cccc3=O)[C@@H]2N1C(=O)C1CC1)c1ccccc1	-1	0	-1.0
O=C(Nc1cccc(Cl)c1)N1C[C@@H]2[C@H](c3ccccc31)[C@@H](CO)N2C(=O)C1CCCC1	-1	-5	4.0
C[C@H](NC(=O)C[C@H]1C=C[C@@H](NC(=O)CN2CCOCC2)[C@@H](CO)O1)c1ccccc1	-3	3	-6.3
C[C@H]1CN([C@@H](C)CO)S(=O)(=O)c2ccc(-c3cccc(C(=O)N(C)C)c3)cc2O[C@@H]1CN(C)Cc1ccc2c(c1)OCO2	2	-2	3.3
COCC(=O)N1CC2(CCN(Cc3ccccc3)CC2)c2c([nH]c3cc(OC)ccc23)[C@H]1CO	?	·	·
O=C(C[C@H]1CC[C@@H]2[C@H](COC[C@H](O)CN2C(=O)c2ccccc2)O1)N1CCc2ccccc2C1	4	12	-7.8
O=C(NC[C@@H]1N[C@@H](CO)[C@@H]1c1ccc(-c2ccccc2F)cc1)c1ccccn1	1	-2	3.8
CC(C)COC(=O)N(C)C[C@@H]1OCc2cnnn2CCCC(=O)N([C@@H](C)CO)C[C@H]1C	-3	-1	-1.8
CCCNC(=O)N1C[C@H](O)COC[C@H]2O[C@@H](CC(=O)N3CCC(Cc4ccccc4)CC3)CC[C@@H]21	-3	-3	0.0
C[C@H]1CN([C@@H](C)CO)C(=O)c2c(c3ccccc3n2C)-c2ccccc2CO[C@H]1CN(C)Cc1cccnc1	-8	3	-11

Reprinted at random: six records from the list
SMILES	DUX4 txn inh	DUX4 txn inh difference	DUX4 txn inh control
C[C@H]1CN([C@@H](C)CO)C(=O)c2cc(NC(=O)CCC(F)(F)F)ccc2O[C@@H]1CN(C)Cc1ccc(-c2ccccc2)cc1	2	-4	6.2
O=C(c1ccccc1F)N1C[C@H]2[C@@H](c3ccccc31)[C@@H](CO)N2C(=O)c1cccnc1	-3	-4	0.3
CCCC(=O)Nc1ccc2c(c1)C(=O)N(C)[C@H]1CC[C@@H](CC(=O)NCCN3CCCCC3)O[C@H]1CO2	0	-3	3.2
COCC(=O)Nc1ccc2c(c1)[C@H]1C[C@@H](CC(=O)NCc3ccc(-c4ccccc4)cc3)O[C@H](CO)[C@H]1O2	?	·	·
CO[C@H]1CN(C)C(=O)c2cc(NC(=O)c3cnccn3)ccc2OC[C@H](C)NC[C@@H]1C	8	3	4.9
CO[C@@H]1CN(C)C(=O)c2ccc(NC(=O)c3ccccc3F)cc2OC[C@H](C)N(C)C[C@H]1C	6	4	1.7

(listing goes on)
SMILES	DUX4 txn inh	DUX4 txn inh difference	DUX4 txn inh control
CC=Cc1ccc2n(c1=O)C[C@H]1[C@H](CO)[C@@H](C(=O)NC3Cc4ccccc4C3)[C@@H]2N1C(C)=O (mixture of isomers)	3	1	1.8
COc1ccc(S(=O)(=O)N2C[C@@H](O)COC[C@H]3O[C@@H](CC(=O)N[C@H]4CCN(Cc5ccccc5)C4)CC[C@@H]32)cc1	-1	3	-4.4
CO[C@@H]1CN(C)C(=O)c2cc(NS(=O)(=O)c3cn(C)cn3)ccc2OC[C@@H](C)N(CCC(F)(F)F)C[C@@H]1C	-6	-4	-2.7
C/C=C/c1ccc([C@H]2[C@@H](CO)N(C(=O)COC)[C@@H]2CNC(=O)C2CCC2)cc1	-7	-8	0.6
COc1ccc2c3c(n(C)c2c1)[C@H](CO)NCC31CCN(C(=O)c2ccc(F)cc2)CC1	-4	-6	2.2
O=C(Cc1ccccc1)N1C[C@@H]2[C@H](c3ccccc31)[C@@H](CO)N2C(=O)C1CCOCC1	1	-1	2.2
C[C@@H]1CN([C@@H](C)CO)C(=O)c2cccc(NS(=O)(=O)c3cn(C)cn3)c2O[C@@H]1CN(C)Cc1ccc(Oc2ccccc2)cc1	-1	-6	4.8
O=C(NC1CCC1)[C@@H]1[C@@H](CO)[C@@H]2Cn3c(ccc(-c4ccccc4)c3=O)[C@H]1N2	0	2	-1.5

Nothing new here: two of the compounds above.
SMILES	DUX4 txn inh	DUX4 txn inh difference	DUX4 txn inh control
C[C@@H]1CN([C@@H](C)CO)C(=O)c2cccc(NS(=O)(=O)c3cn(C)cn3)c2O[C@@H]1CN(C)Cc1ccc(Oc2ccccc2)cc1	-1	-6	4.8
O=C(NC1CCC1)[C@@H]1[C@@H](CO)[C@@H]2Cn3c(ccc(-c4ccccc4)c3=O)[C@H]1N2	0	2	-1.5

High-throughput results (PubChem BioAssay)

These rows are one share of the data; count on the stated rates, not on these rows.
